Bioassay records as filed in PubChem.
Bfl-1 A1 inh – inhibitors of the anti-apoptotic protein A1, read as caspase activation; MEF A1-2A-BIM cells, Caspase-Glo 3/7 luminescence, 3 h; percent of clofoctol response, vehicle zero; caspase activation, % (concentration not given with the values); 0.066% of 330,000 active;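 active means over half of replicate activation scores above 10%, or exactly half above 10 with the replicate mean above 10; inconclusive means replicate mean below 10 yet half the replicates above 10; inactive means over half of replicates below 10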;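 further: wells of about 30 µL received 50 nL stock; many hits fall short of the cut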
UCH37 DUB inh – inhibitors of human deubiquitinating enzyme UCH37. inhibition, % (test concentration not listed). Q9Y5K5. purified proteasome/UCH37, Ub-AMC cleavage fluorescence. 0.33% of 330,000 active. AID 588478;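 active means mean of two replicates above 20%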;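 further: 0% = compound-free wells with enzyme and 100% = wells lacking proteasome; stock transfer was 100 nL into about 20 µL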
Target sequence (Q9Y5K5 whole entry, looked up): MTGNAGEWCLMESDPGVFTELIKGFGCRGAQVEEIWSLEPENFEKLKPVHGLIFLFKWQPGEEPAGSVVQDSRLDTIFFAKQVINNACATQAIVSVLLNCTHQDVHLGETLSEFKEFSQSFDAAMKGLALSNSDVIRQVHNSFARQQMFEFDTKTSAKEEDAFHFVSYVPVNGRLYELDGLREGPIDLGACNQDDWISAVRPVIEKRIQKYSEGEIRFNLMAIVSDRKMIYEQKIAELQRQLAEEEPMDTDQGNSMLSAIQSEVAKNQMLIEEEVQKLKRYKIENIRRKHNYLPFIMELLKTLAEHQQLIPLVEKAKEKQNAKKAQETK
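Assay system: Proteasome-bound UCH37. Buffer or medium: pH 7.4 Tris-HCl (50 mM) with ovalbumin, ATP-MgCl2, DTT. Incubation: 30 min preincubation with enzyme, 25 min cleavage at room temperature. Measured by: fluorescence, ex 355 nm, em 460 nm. Read-out basis: percent inhibition. Control set: wells without proteasome as full block, compound-free enzyme plus substrate as uninhibited.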
Calb FLC – C. albicans growth modulation with fluconazole. C. albicans CaCi-2 (fluconazole-resistant clinical isolate) + fluconazole, Alamar Blue growth, 48 h. 0.57% of 300,000 active. growth inhibition, % (no concentration beside the values);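 active means most replicates above 75%; inconclusive means exactly half above 75%; inactive means most below 75%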;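 further: all wells also contain fluconazole at 8 µg/ml as a sub-toxic cotreatment; 0% = median of DMSO wells and 100% = median of geldanamycin control wells; wells of about 8 µL received 7.5 nL stock; the first replicate is given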
Beta2AR agonist – activates human beta-2 adrenergic receptor causing internalization; 0.43% of 340,000 active; Am2.2-beta2AR cells, FAP receptor internalization, flow cytometry; reference of the scale not given here; P07550; response, % (no concentration beside the values);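 active means response above a set limit, near 3 SD of response in nonfluorescent compounds, cut at about 42% in these data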;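 further: stock transfer was 100 nL into about 11 µL; a reference agonist was the positive control; negative values mostly stem from fluorescent compounds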
Target sequence (P07550 whole entry, looked up): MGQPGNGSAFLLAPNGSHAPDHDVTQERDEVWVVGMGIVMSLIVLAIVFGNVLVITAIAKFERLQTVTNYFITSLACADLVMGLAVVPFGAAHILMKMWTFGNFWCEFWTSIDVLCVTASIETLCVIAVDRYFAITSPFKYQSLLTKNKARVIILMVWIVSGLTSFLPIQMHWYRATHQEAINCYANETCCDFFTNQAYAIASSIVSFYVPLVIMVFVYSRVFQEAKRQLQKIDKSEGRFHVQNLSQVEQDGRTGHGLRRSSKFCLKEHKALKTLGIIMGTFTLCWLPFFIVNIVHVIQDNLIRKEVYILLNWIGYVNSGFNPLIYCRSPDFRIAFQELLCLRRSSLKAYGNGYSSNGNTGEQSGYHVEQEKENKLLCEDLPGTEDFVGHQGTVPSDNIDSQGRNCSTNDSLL
Beta cell apopt – blocks beta cell apoptosis; INS-1E cytokine-induced death, ATP luminescence, 48 h; percent of positive-control rescue, neutral wells zero; protection from apoptosis, % (concentration not given with the values); 0.8% of 300,000 active;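 active means all replicates at 75% or more, or half of them and the mean; inconclusive means half reach 75% but not the mean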;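 further: 0% = cytokine-treated negative control wells and 100% = positive control rescue; higher means more ATP so stronger rescue from cytokine killing; wells of about 40 µL received 100 nL stock; the first replicate is given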
T cruzi repl – T. cruzi replication inhibition. T. cruzi beta-gal in NIH3T3, luminescence, 90 h. inhibition, % (test concentration not listed). 1.4% of 300,000 active. AID 1885;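 active means mean inhibition across valid replicates above about 55%, limit read from the data; inconclusive means mean below that limit but half or more replicates reach it; inactive means mean below it, under half of replicates reach it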;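 further: signal also drops with host cell toxicity which is not excluded here; 0% = plate median of DMSO wells and 100% = zero luminescence signal; higher percent means less beta-gal luminescence so fewer parasites; stock transfer was 50 nL into about 50 µL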
LANA-H2A inh – blocks KSHV LANA binding to histone H2A/H2B; Q9QR71; cell-free LANA-H2A/H2B peptide, fluorescence polarization; inhibition, % (concentration not given with the values); 0.6% of 320,000 active; in the data active means inhibition mostly above about 10%, no sharp cut-off; inactive means mostly below about 6.7%;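 further: stock transfer was 7.5 nL into about 10 µL; 0% = median of vehicle wells and 100% = median of positive control wells; one replicate is shown; the record names a cut of 25% in any replicate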
RanGTP-Imp inh – inhibitors of RanGTP-importin-beta interaction, primary screen, biochemical, FRET, CFP-Ran, YFP-importin-beta, homogeneous; cell-free CFP-Ran/YFP-importin-beta FRET ratio; inhibition, % (concentration not given with the values); 1.1% of 300,000 active;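 active means most replicates above 15%; inconclusive means exactly half above 15%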;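 further: 0% = DMSO wells and 100% = Ran loaded with GDP instead of GTP; wells of about 40 µL received 100 nL stock; the first replicate is given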
* = called active by the depositor; i = inactive; ? = inconclusive; . = no result given. Random draw from the library, and some 4.3% of all compounds hit somewhere here.

Compound,Beta2AR agonist,Bfl-1 A1 inh,T cruzi repl,RanGTP-Imp inh,UCH37 DUB inh,Calb FLC,LANA-H2A inh,Beta cell apopt
COC(=O)c1scc(C)c1NC(=O)Cc1ccccc1,5,-1.2,-3,1.7,1.4,?,-3.4,-4
CC(=O)COC(=O)c1cccc(N2C(=O)C3C4C=CC(C4)C3C2=O)c1 (stereo not given),9,0.3,-14,?,5.2,-5,0.3,-12
COCCn1c(C)cc(C(=O)COC(=O)CCc2ccc(S(=O)(=O)N3CCOCC3)cc2)c1C,3,0.2,-12,4.7,3.8,11,-3.6,0
COc1ccc(-n2nc(C(=O)Nc3nc4ccc(OC)cc4s3)c3ccccc3c2=O)c(OC)c1,.,0.6,-11,?,4.5,-2,-4.1,-15
COc1ccc(NC(=O)C/C(C)=N/NC(=O)c2ccccn2)c(OC)c1,-13,1.0,7,-5.1,.,-4,0.3,-7
O=C(CCc1ccccc1)Nc1cccc(-c2nnc(-c3ccco3)o2)c1,5,-0.4,-1,-4.7,1.8,15,-1.4,-4
COc1ccc(C(=O)CCC(=O)NC2=NCCS2)cc1,13,-0.6,-18,3.8,3.4,-16,8.3,-10
CC1(CCc2ccc3c(c2)OCO3)NC(=O)c2ccccc2N1 (stereo not given),-3,-0.2,-9,-3.9,-322,-20,3.8,1
COc1ccc(-c2noc(CSc3nc4sc(C)c(C)c4c(=O)n3-c3ccccc3)n2)cc1OC,28,0.1,20,7.3,1.4,0,-0.5,1
O=C(Nc1ccc(S(=O)(=O)Nc2nccs2)cc1)c1cccc(F)c1,-1,-1.0,7,?,1.5,-5,-0.6,-3
COc1ccc(OCC(=O)Nc2ccncc2)cc1,-2,-0.1,22,0.0,2.8,-2,1.7,2
NC(=O)c1ccc[n+](CC(=O)c2cccc([N+](=O)[O-])c2)c1,0,1.5,7,?,5.1,-1,-2.3,-4
CCN(Cc1ccccc1)c1ccc(/C=N/NC(=O)c2cccc(S(=O)(=O)N3CCOCC3)c2)cc1,19,-0.5,12,-1.7,.,1,-3.5,8
Cc1nc2cc3ccccc3cc2c(=O)[nH]1,0,-9.7,-20,?,i,3,-1.9,5
CN(CCOC(=O)c1ccccc1)Cc1ccccc1,-41,-0.7,-8,-1.1,0.0,-2,1.2,-1
CC(C)C(CC(=O)NCc1ccco1)c1ccco1 (stereo not given),0,-0.2,-7,-1.7,1.4,4,4.1,-1
COc1cc2c(cc1OC)CN(C(=O)Cn1ccccc1=O)CC2,8,0.7,-1,7.8,-1.0,0,4.3,-6
CCOc1ccc(CC(=O)NCC2(N3CCCCC3)CCCCC2)cc1,2,-0.2,12,-1.5,0.9,-20,-2.5,-2
COc1ccccc1NC(=O)CSc1nnc(C2CCCCC2)o1,-2,0.3,-11,?,-0.3,-1,-1.6,4
O=C1c2ccccc2C(=O)N1CCc1c[nH]c2ccc(O)cc12,5,-0.3,-4,-8.6,3.9,5,-1.0,-2
CCOC(=O)C1CCCN(CC(O)COCc2ccc3c(c2)OCO3)C1 (stereo not given),3,-0.5,21,-3.9,-1.0,-4,-3.1,2
COc1ccc(C2Nc3ccccc3C(=O)N2Cc2ccco2)cc1COc1ccc(F)cc1 (stereo not given),-10,-0.1,39,-0.1,-101,5,-16,1
O=C(CN1C(=O)NC2(CCCC2)C1=O)Nc1cc(Cl)ccc1N1CCCC1,-2,-1.4,-13,1.3,4.4,0,3.9,.
COc1cccc(CSc2nnc(C(F)(F)F)n2Cc2ccc(F)cc2)c1,-10,0.2,-1,4.2,-0.1,6,-1.7,0
CCOCc1nnc(NC(=O)c2ccc(NC(C)=O)cc2)s1,-2,0.6,-7,1.2,4.4,12,0.1,-1

Ordered by SMILES length (ascending): part of the list above
Compound,Beta2AR agonist,Bfl-1 A1 inh,T cruzi repl,RanGTP-Imp inh,UCH37 DUB inh,Calb FLC,LANA-H2A inh,Beta cell apopt
Cc1nc2cc3ccccc3cc2c(=O)[nH]1,0,-9.7,-20,?,i,3,-1.9,5
CC(C)C(CC(=O)NCc1ccco1)c1ccco1 (stereo not given),0,-0.2,-7,-1.7,1.4,4,4.1,-1
COC(=O)c1scc(C)c1NC(=O)Cc1ccccc1,5,-1.2,-3,1.7,1.4,?,-3.4,-4
COc1ccc(C(=O)CCC(=O)NC2=NCCS2)cc1,13,-0.6,-18,3.8,3.4,-16,8.3,-10
CCOCc1nnc(NC(=O)c2ccc(NC(C)=O)cc2)s1,-2,0.6,-7,1.2,4.4,12,0.1,-1
COc1cc2c(cc1OC)CN(C(=O)Cn1ccccc1=O)CC2,8,0.7,-1,7.8,-1.0,0,4.3,-6
O=C1c2ccccc2C(=O)N1CCc1c[nH]c2ccc(O)cc12,5,-0.3,-4,-8.6,3.9,5,-1.0,-2
CCOC(=O)C1CCCN(CC(O)COCc2ccc3c(c2)OCO3)C1 (stereo not given),3,-0.5,21,-3.9,-1.0,-4,-3.1,2
CC(=O)COC(=O)c1cccc(N2C(=O)C3C4C=CC(C4)C3C2=O)c1 (stereo not given),9,0.3,-14,?,5.2,-5,0.3,-12
COCCn1c(C)cc(C(=O)COC(=O)CCc2ccc(S(=O)(=O)N3CCOCC3)cc2)c1C,3,0.2,-12,4.7,3.8,11,-3.6,0

The list goes on:
Compound,Beta2AR agonist,Bfl-1 A1 inh,T cruzi repl,RanGTP-Imp inh,UCH37 DUB inh,Calb FLC,LANA-H2A inh,Beta cell apopt
C[C@H](NC(=O)C(c1ccccc1)c1ccccc1)c1ccccc1,7,0.4,2,5.5,4.2,10,3.4,2
C=CCn1c(SCC(=O)N2CC(C)OC(C)C2)nnc1-c1ccncc1 (stereo not given),-4,1.7,.,.,0.8,.,-188,-11
Clc1ccc2ncc(-c3nnnn3-c3ccccc3)c(-c3ccccc3)c2c1,15,0.2,37,3.7,3.7,4,0.9,7
N#CCSc1ncnc2ccccc12,15,1.0,-9,-3.0,5.5,-1,2.4,-2
O=C1CN(C(=O)COC(=O)/C=C/c2ccc(S(=O)(=O)N3CCOCC3)cc2)c2ccccc2N1,-1,0.7,-1,?,-1.7,28,8.2,-2
O=S(=O)([N-]c1nc2ccccc2nc1-[n+]1ccc(CCCc2ccccc2)cc1)c1cccs1,2,0.3,20,7.2,4.3,-1,-3.4,0
CCOc1cc(NCCN2CCOCC2)c([N+](=O)[O-])cc1OCC,3,-0.3,-1,-6.1,11,3,6.1,4
CCOC(=O)N1CCN(C(=O)COC(=O)CNC(=O)c2ccc(Cl)cc2Cl)CC1,-1,-0.9,-20,1.8,-1.3,-3,3.4,-7
CCc1ccc(OCC(=O)NN2Cc3ccccc3C2=N)cc1,2,1.7,-5,1.5,5.7,12,-4.7,-7
O=C(NC1=NCCS1)[C@H](Cc1ccccc1)N1C(=O)c2ccccc2C1=O,6,0.1,-9,1.4,3.7,22,-6.6,-11
CC(C)OC(=O)NCCOC(=O)Nc1cccc(Cl)c1,0,-1.7,-10,4.1,0.0,1,0.5,7
O=C(CSc1n[nH]c(-c2ccccc2)n1)Nc1ncc(Br)cc1Br,-5,0.9,-15,4.6,-1.8,1,-0.3,-1
COc1ccccc1Nc1nc2nonc2nc1N1CCCCC1C (stereo not given),0,0.1,15,7.2,4.8,5,-0.7,2
O=C(NC(=S)Nc1cccc(Cl)c1N1CCOCC1)c1cccs1,7,-1.1,-10,4.1,3.5,-1,4.6,-5
Cc1cc(=O)oc2cc(OCc3nnc(-c4ccccc4Br)o3)ccc12,2,0.3,.,.,-74,.,5.7,1
O=C(NCC1CCCO1)c1sc(=S)n2c1[nH]c(=O)c1ccc(C(=O)N3CCCCC3)cc12 (stereo not given),8,1.0,-9,-6.9,13,-9,1.8,-1
CCn1ccnc1CN(C)C(=O)C1CCC(=O)N(CCc2cccc(F)c2)C1 (stereo not given),-5,1.1,-1,4.7,0.4,2,-1.5,-2
Cc1ccc2cc(CN(Cc3ccco3)C(=O)c3ccco3)c3nnnn3c2c1,-13,0.9,-5,-1.3,.,13,-1.3,8
O=C(O)CC1=C(O)C(=O)N(c2ccccc2)C1c1ccc(Br)cc1 (stereo not given),-6,-0.9,5,0.4,-2.8,4,6.1,-7
CN(C)S(=O)(=O)c1cc(NC(=O)c2ccc(-n3ccnc3)c([N+](=O)[O-])c2)ccc1Cl,3,-0.4,12,-5.1,-2.0,26,4.0,6
CC1=C(C(=O)NCc2ccc3c(c2)OCO3)C2(CCC(C)CC2)OC1=O (stereo not given),-7,0.0,-7,-2.8,4.3,4,0.9,-2
CCCCC1CC(C)(C(=O)CSc2nc3ccccc3s2)OC1=O (stereo not given),-2,0.2,17,-0.2,-0.2,4,-4.6,-7
O=C1NCCOC(=O)[C@H](Cc2ccc(F)cc2)CC/C=C/C[C@@H]1CC(=O)N(CCO)Cc1ccccc1,-2,-1.5,.,.,0.3,.,-3.3,0
COc1cc(/C=C/C(=O)c2ccccc2O)cc(OC)c1OC,13,0.2,-45,3.6,5.9,1,1.5,7
Cc1nc(SCC(=O)c2ccc(F)cc2)c([N+](=O)[O-])[nH]1,2,-0.2,-11,3.4,1.4,1,3.4,-4

(continued)
Compound,Beta2AR agonist,Bfl-1 A1 inh,T cruzi repl,RanGTP-Imp inh,UCH37 DUB inh,Calb FLC,LANA-H2A inh,Beta cell apopt
Cc1nn(C)c(C)c1C1C(C#N)=C(N)OC2=C1C(=O)CC(C)(C)C2 (stereo not given),5,0.4,-11,-0.6,5.0,5,1.2,6
O=C(CCC(=O)OCc1ccc(Cl)cc1)Nc1cccc([N+](=O)[O-])c1,-5,-0.7,-4,-2.5,0.4,0,-0.2,-6
Cn1ccnc1Sc1cc(Cl)ccc1[N+](=O)[O-],-2,-0.3,-14,-2.3,4.3,6,-1.2,-8
COn1c(=O)c(-c2ccccc2)[n+]([O-])c2ccccc21,-3,2.0,-5,-2.5,-7.3,.,-0.9,-4
O=C(Cc1cccc(C(F)(F)F)c1)Nc1ccc(S(=O)(=O)N2CCCC2)cc1,-6,-0.1,4,-2.9,2.0,.,6.5,0
c1ccc(CNC2=NCCCC2)cc1,2,-0.6,-8,-0.3,-0.6,6,-4.6,-8
C=CCc1cccc2cc(C(=O)N3CCN(C(=O)OCC)CC3)c(=O)oc12,0,0.6,3,2.5,-1.5,30,1.1,-7
Cc1cc(C)c2c(N)c(C(=O)Nc3ccccc3Cl)sc2n1,-20,-0.6,39,1.4,-163,-4,0.1,-3
Cc1cc(C)nc(-n2ncc(C#N)c2N)n1,-16,-0.1,-5,1.7,.,2,11*,1
